Screening results from PubChem.
Sa growth 42C: S. aureus growth inhibition; S. aureus RN4220 growth, OD600, 20 h, 42 °C; active compounds read low; relative growth, % (no concentration beside the values); 170,000 tested, 0.53% active;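 active means growth at 42 °C up to 50% and 20 or more points under that at 30 °C, or under 10% at both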;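 further: 300 nL library stock went into each well; scaled to the means of positive and negative controls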
GIV-Gai inh: GIV-Galpha-i interaction inhibition; Galpha-i3/FITC-GIV peptide fluorescence polarization, 90 min; active compounds read low; scaled: aluminum fluoride 0%, vehicle 100%; percent of control (FP), % (test concentration not listed); 210,000 tested, 0.42% active; P08753; AID 1224905;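 active means replicate mean at 85% of control or lower, very high polarization wells dropped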;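 further: lower values mean more displacement of the GIV peptide from Galpha-i3; wells of about 15 µL received 100 nL stock; the first replicate is given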
Target sequence (P08753 whole entry, looked up): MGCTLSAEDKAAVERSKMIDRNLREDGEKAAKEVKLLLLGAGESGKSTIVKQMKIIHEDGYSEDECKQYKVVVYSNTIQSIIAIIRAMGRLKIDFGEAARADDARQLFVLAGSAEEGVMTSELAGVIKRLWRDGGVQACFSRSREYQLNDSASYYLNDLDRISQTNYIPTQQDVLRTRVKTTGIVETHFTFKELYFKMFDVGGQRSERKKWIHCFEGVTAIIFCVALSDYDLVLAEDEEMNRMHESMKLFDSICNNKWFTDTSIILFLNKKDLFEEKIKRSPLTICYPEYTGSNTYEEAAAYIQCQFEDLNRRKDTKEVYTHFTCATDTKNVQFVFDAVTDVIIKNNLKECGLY
HCMV UL50-53 inh: inhibitors of HCMV UL50-UL53 nuclear egress complex interaction; HTRF UL50-UL53 interaction, normalized percent inhibition; inhibition, % (no concentration beside the values); AID 1918969; 190,000 tested, 0.15% active;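 active means both replicates at 50% or more, plus weaker picks with an unusually low signal ratio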;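 further: stock transfer was 100 nL into about 20 µL; 0% = negative control wells and 100% = wells with untagged competitor protein; inactives centre near -12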
Sa growth 42C second temp: recorded beside Sa growth 42C, whose call it bears; relative growth, %; measured here: growth at 30 °C;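 optical density after 20 h as mean of two plates; 100% = untreated growth and lower means inhibition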
An asterisk follows results filed as active; / = not tested or not shown; & = joins results of further samples. Rows are unselected; overall some 0.79% were active at least once.

SMILES | Sa growth 42C | Sa growth 42C second temp | GIV-Gai inh | HCMV UL50-53 inh
CCN1CCN(C(=O)C(C)Nc2cc(Cl)c(OC)cc2OC)CC1 (stereo unspecified) | 95 | 92 | / | -30
Cc1ccc(CNC2=NCCC2)n1C | 100 | 87 | / | -4
COC(=O)Cn1cnc2onc(-c3cccc(F)c3)c2c1=O | / | / | 95 | -16
Cc1ccc(-c2nnc3ccccc3c2C(=O)Nc2cccc(Cl)c2)cc1 | 99 | 98 | 112 | /
CC(C)Sc1n[nH]c(=O)n1-c1ccc2c(c1)OCCO2 | 109 | 90 | 106 | -11
O=C(CCCc1ccccc1)Nc1nnc(C(F)(F)F)s1 | 119 | 78 | 108 | -10
CCOC(=O)c1cc(-c2ccc(S(=O)(=O)N3CCCc4ccccc43)s2)on1 | 87 | 68 | 127 | -39
CC(=O)Nc1ccc(NC(=O)c2ccccc2)cc1 | 89 | 90 | 99 | -12
Cc1ccc(OC(=O)c2snnc2C)cc1C | 88 | 86 | 104 | 3
COc1ccc(C2OC(COc3ccccc3)CN(C(=O)c3ccccc3)O2)cc1OC (stereo unspecified) | 101 | 77 | / | -39
Cc1noc2c1C(c1cccc(Br)c1)C1=C(CC(c3ccccc3O)CC1=O)N2 (stereo unspecified) | / | / | 108 | 1
COc1ccc(-c2nnn3c2nc(N2CCCC(C)C2)c2ccccc23)cc1 (stereo unspecified) | 91 | 100 | 110 | -6
Cc1ccc2c(c1)-c1onc(C(=O)N3CCN(c4ccc(Cl)cc4)CC3)c1CO2 | 84 | 102 | 106 | /
CCCCNC(=O)Nc1ccc2c(c1)N(C)C(=O)c1ccccc1S2 | 107 | 91 | 98 | -3
O=C(COC(=O)/C=C/c1ccccc1)NC1CCCc2ccccc21 (stereo unspecified) | 95 | 100 | / | 19
CCOc1c(OC)cc(/C=C2/C(=O)N(c3ccc(S(N)(=O)=O)cc3)N=C2C)cc1[N+](=O)[O-] | / | / | 95 | -10
C=C1C2(C(=O)Nc3nccs3)CCC(C2)C1(C)C (stereo unspecified) | 101 | 80 | 100 | -24
O=C(NCCc1csc(-c2ccc(F)cc2)n1)C(=O)Nc1ccc(Cl)cc1 | 93 | 91 | 103 | /
CCOCCCNC(=O)Cn1nc(CC)n2c(cc3c(OC)cccc32)c1=O | 98 | 87 | 99 | -13
CC(C)Cn1c(=O)c2sccc2n2c(SCc3ccccc3)nnc12 | / | / | 106 | -12
CNC(=O)c1ccccc1SCCC(=O)O | 85 | 90 | 96 | 19
CCS(=O)(=O)c1ncc(Cl)c(C(=O)Nc2ccccc2)n1 | 41 | 34 | 102 | -15
Cc1cc(C)cc(NC(=O)N2CCCC2c2ccc(Cl)cc2)c1 (stereo unspecified) | / | / | 94 | -27
Nc1nc(-c2ccncc2)nc2sc3c(c12)CCCCC3 | 115 | 81 | 100 | -19
Cc1ccc(-c2nn3c(COc4ccc(Br)cc4)nnc3s2)cn1 | / | / | 118 | -27
Cc1cccc(NC(=O)CSCC(=O)Nc2ccc(S(N)(=O)=O)cc2)c1 | 98 | 84 | / | -10
CCOc1cc(-c2nc3sc4c(c3c(=O)[nH]2)CCCC4)ccc1OCCOc1cccc(OC)c1 | / | / | 104 | -21
O=C1c2ccccc2-c2onc3c(N4CCN(c5ccccc5)CC4)ccc1c23 | 92 | 86 | 116 | -20
Cc1ccc(-c2nnc(Nc3ccc(Cl)c(Cl)c3)c3ccccc23)cc1S(=O)(=O)NCCO | 97 | 106 | 105 | 22
COc1ccc(Cc2nnc3n2N=C(C(C)(C)C)CS3)cc1 | 97 | 85 | / | -16
CCC(Oc1ccc(F)cc1)C(=O)Nc1nonc1-c1ccccc1 (stereo unspecified) | 94 | 84 | 102 | -20
Nc1ccc2nc(Cc3ccccc3)[nH]c2c1 | 83 | 92 | / | 3
CCN1C(=O)CC(C(=O)NC)SC1=Nc1cc(Cl)c(O)c(Cl)c1 (stereo unspecified) | 90 | 83 | 97 | -14
CC(C)NC(=O)Cn1ncc2c3ccccc3n(Cc3ccc(F)cc3)c2c1=O | 95 | 91 | 102 | -12
O=S(=O)(Cc1ccc(Cl)cc1)c1ccc(NC2CCCC2)nn1 | / | / | 99 | 20
CC(=O)Nc1ccc(C(=O)CSc2nccn2C)cc1 | 140 | 86 | / | -11
COc1ccc(CNc2ccccc2C(=O)O)c(OC)c1OC | 64 | 103 | 110 | -29
CC(C)c1ccc(C2NC(=O)c3c(sc4c3CCN(C)C4)N2)cc1 (stereo unspecified) | 88 | 84 | 147 | -46
Cc1ccn2c(NC3CCCCC3)c(C)nc2c1 | 81 | 82 | 105 | 12
Cc1cc(NC(=O)CSc2nc(-c3ccccc3F)nc3c2c(=O)n(C)c(=O)n3C)no1 | 75 | 91 | 98 | /

A second format for some results above:
| SMILES | Sa growth 42C | Sa growth 42C second temp | GIV-Gai inh | HCMV UL50-53 inh |
| --- | --- | --- | --- | --- |
| Cc1ccc2c(c1)-c1onc(C(=O)N3CCN(c4ccc(Cl)cc4)CC3)c1CO2 | 84 | 102 | 106 | / |
| CCCCNC(=O)Nc1ccc2c(c1)N(C)C(=O)c1ccccc1S2 | 107 | 91 | 98 | -3 |

(cont.)
SMILES | Sa growth 42C | Sa growth 42C second temp | GIV-Gai inh | HCMV UL50-53 inh
O=C(CC1C(=O)NCCN1C(=O)Nc1ccccc1)Nc1cc(Cl)ccc1Cl (stereo unspecified) | 89 | 83 | 110 | -33
CCc1nnc(-c2cc(S(=O)(=O)N3CCN(c4ccccn4)CC3)c[nH]2)o1 | / | / | 100 | -32
O=C(O)CCC(=O)N1N=C2/C(=C/c3ccco3)CCCC2C1c1ccco1 (stereo unspecified) | 95 | 84 | / | -47
CCCCCSc1nnc(-c2ccc(Cl)cc2Cl)o1 | 89 | 114 | 104 | 7
Cn1c(CNc2nc3ccccc3n2CCN2CCCCC2)nc2ccccc21 | 111 | 66 | 101 | -1
COc1ccc(CCNC(=O)CCCn2nc(C)n3ccnc3c2=O)cc1OC | 98 | 92 | 94 | 0
CCNc1nc(NCC)nc(-n2cnc(SC)n2)n1 | / | / | 104 | -8
COCCN(C(=S)Nc1ccccc1C)C1CCN(C(C)C)CC1 | 93 | 87 | 101 | -30
COc1ccc(S(=O)(=O)N2CCN(C(=O)c3cc(C)oc3C)CC2)cc1 | 88 | 92 | / | -10
CC(=O)NC1C(=O)Nc2c1cccc2C(F)(F)F (stereo unspecified) | 109 | 86 | 106 | /
CCOC(=O)C(Sc1n[nH]c(N)n1)c1ccccc1 (stereo unspecified) | 96 | 94 | / | 7
O=c1[nH]c(=S)[nH]c2ccccc12 | 86&106 | 81&106 | 108&107 | -18&5
CCOC(=O)c1cc(OC(=O)c2ccc(OC)cc2)n(-c2ccccc2)n1 | 93 | 85 | 100 | -32
Cc1ccc(CNC(=O)CCC(=O)N2Cc3ccccc3Oc3ncccc32)cc1 | 78 | 84 | 101 | /
O=C(C1CCN(c2ncnc3c2nc2n3CCCCC2)CC1)N1CCN(c2ccc(F)cc2)CC1 | 113 | 94 | 103 | /
Cc1cccc(C(=O)Nc2cccc(OCc3cc(=O)n4cccc(C)c4n3)c2)c1 | 97 | 93 | 104 | /
CCCn1cnc2cc(NCc3ccc(Cl)cc3Cl)ccc21 | 0.5* | -0.5* | 114 | /
Cc1ccc(CCNC(=O)c2cc3cc(S(=O)(=O)N4CCCCC4)ccc3n2C)cc1 | 95 | 91 | 105 | /
N#Cc1ccc(COC(=O)c2cnc3ncccn3c2=O)cc1 | 66 | 83 | / | -68
CC(C)NC(=O)C1CCN(C(=O)N2CC(C)Oc3ccccc32)CC1 (stereo unspecified) | 119 | 88 | 104 | -22

A draw from above in order of count of non-hydrogen atoms, high to low:
SMILES | Sa growth 42C | Sa growth 42C second temp | GIV-Gai inh | HCMV UL50-53 inh
O=C(C1CCN(c2ncnc3c2nc2n3CCCCC2)CC1)N1CCN(c2ccc(F)cc2)CC1 | 113 | 94 | 103 | /
Cc1cc(NC(=O)CSc2nc(-c3ccccc3F)nc3c2c(=O)n(C)c(=O)n3C)no1 | 75 | 91 | 98 | /
Cc1ccc(CCNC(=O)c2cc3cc(S(=O)(=O)N4CCCCC4)ccc3n2C)cc1 | 95 | 91 | 105 | /
Cc1cccc(C(=O)Nc2cccc(OCc3cc(=O)n4cccc(C)c4n3)c2)c1 | 97 | 93 | 104 | /
COc1ccc(CCNC(=O)CCCn2nc(C)n3ccnc3c2=O)cc1OC | 98 | 92 | 94 | 0
O=C(CC1C(=O)NCCN1C(=O)Nc1ccccc1)Nc1cc(Cl)ccc1Cl (stereo unspecified) | 89 | 83 | 110 | -33
CCc1nnc(-c2cc(S(=O)(=O)N3CCN(c4ccccn4)CC3)c[nH]2)o1 | / | / | 100 | -32
COc1ccc(S(=O)(=O)N2CCN(C(=O)c3cc(C)oc3C)CC2)cc1 | 88 | 92 | / | -10
CC(C)NC(=O)C1CCN(C(=O)N2CC(C)Oc3ccccc32)CC1 (stereo unspecified) | 119 | 88 | 104 | -22
COCCN(C(=S)Nc1ccccc1C)C1CCN(C(C)C)CC1 | 93 | 87 | 101 | -30
N#Cc1ccc(COC(=O)c2cnc3ncccn3c2=O)cc1 | 66 | 83 | / | -68
CCCn1cnc2cc(NCc3ccc(Cl)cc3Cl)ccc21 | 0.5* | -0.5* | 114 | /
CCNc1nc(NCC)nc(-n2cnc(SC)n2)n1 | / | / | 104 | -8
Cc1ccn2c(NC3CCCCC3)c(C)nc2c1 | 81 | 82 | 105 | 12
O=c1[nH]c(=S)[nH]c2ccccc12 | 86&106 | 81&106 | 108&107 | -18&5

Other entries:
SMILES | Sa growth 42C | Sa growth 42C second temp | GIV-Gai inh | HCMV UL50-53 inh
Cc1cccc(C2CC(=O)Nc3c2c(C)nn3-c2ccc3nncn3n2)c1 (stereo unspecified) | / | / | 99 | -27
Cc1ccccc1CCNC(=O)c1ccc(NC(=O)N2CC(C)Sc3ccccc32)cc1 (stereo unspecified) | 101 | 93 | 104 | -19
NS(=O)(=O)c1ccc(Nc2ccc3cc(S(=O)(=O)N4CCCC4)ccc3n2)cc1 | / | / | 101 | -9
CCOc1ccc(Nc2oc(-c3ccc(COc4ccccc4C)o3)nc2C#N)cc1 | 97 | 89 | 101 | 6
Cc1ccc(Cl)cc1N1CCN(c2ncnc3c2nc2n3CCCCC2)CC1 | 96 | 91 | 100 | /
CC(c1ccccc1)n1cc(C(=O)NCCN2CCCCCC2)nn1 (stereo unspecified) | 96 | 85 | 105 | 14
COc1ccccc1NC(=S)N=Nc1c(O)n(CN2CCN(c3ccccc3)CC2)c2ccccc12 | 104 | 83 | 95 | -27
N#Cc1ccc(C(=O)OCc2ccc(-c3cccc(Cl)c3Cl)o2)c(F)c1 | 111 | 103 | 108 | -13
COc1ccc(Cc2nn3c(-c4cccnc4)nnc3s2)cc1 | / | / | 105 | -3
O=C(CSc1nccn(-c2cccc(F)c2)c1=O)NC1CCCCC1 | 88 | 101 | 112 | -58
Cc1ccc(-n2ncc(C(=O)NCCc3c[nH]c4ccccc34)c2C2CCN(C(=O)OC(C)(C)C)CC2)cc1C | 106 | 93 | 111 | 6
Cc1ccc(NC(=O)N2CCC(c3ccccc3)C2)cc1C (stereo unspecified) | 86 | 98 | 102 | /
CC(C)NC(=O)NNc1cc(N(C)C)c(C#N)c(N(C)C)n1 | 77 | 64 | 105 | -53
COc1cccc(NC(=O)Cn2c(=O)n(CCC(=O)NCCc3ccc(Cl)cc3)c(=O)c3ccccc32)c1 | 111 | 92 | 107 | -62
Cc1ccc2c(c1)-c1c(cnn1CC(=O)N(C)C1CCCCC1)CO2 | 129 | 100 | 110 | -6
Cc1c(C#N)c2ccccc2n1CC(=O)O | 111 | 98 | / | 9
CCC1CCCCN1CCCNC(=O)c1ccc2c(c1)N(Cc1ccc(Cl)cc1)C(=O)c1ccccc1S2(=O)=O (stereo unspecified) | 112 | 49 | 105 | -17
O=C(NC1CCCC1)C1CCCN(c2ccnc(-c3ccc(F)cc3)n2)C1 (stereo unspecified) | / | / | 109 | -4
COCc1cc(C)nc2sc(C(=O)N3CCC(C)CC3)c(N)c12 | 101 | 81 | 100 | -32
Cc1ccc(C(C(=O)NC2CC2)N(C(=O)Cn2nnc(-c3cccs3)n2)c2cnc3ccccc3c2)o1 (stereo unspecified) | 83 | 71 | 96 | 9
O=C(Cc1ccccc1Br)N(CCCN1CCOCC1)Cc1cccs1 | 95 | 78 | 106 | -16
CNC(=O)c1ccc(CN2CCc3ccccc3C2)cc1 | 109 | 80 | 106 | -6
O=C(OCC(=O)N1CCNC1=O)C1=COCCO1 | 92 | 96 | / | -18
O=C(NCCC1=CCCCC1)C1CCCN(c2ccnc(-c3cccc(F)c3)n2)C1 (stereo unspecified) | / | / | 107 | -8
O=C(CCc1nnc2n(Cc3ccccc3Cl)c(=O)c3ccccc3n12)Nc1ccccc1 | 101 | 86 | 101 | -38
CCn1c(=O)c(=O)[nH]c2cc(C(=O)Nc3nc4c(s3)CCCC4)ccc21 | 118 | 93 | / | -15
CCc1ccc(-c2cc(O)cc3sc(=O)oc23)cc1 | 21 | 25 | 100 | /
CCOC(=O)C1=C(C)N=C2SCCC(=O)N2C1/C=C/c1ccccc1 (stereo unspecified) | 82 | 79 | 107 | -27
O=C(Cn1[nH]c(=O)c2ccccc2c1=O)OCN1C(=O)c2ccccc2C1=O | 106 | 101 | / | 2
